Screening results as filed in PubChem BioAssay.
WNV NS2B-NS3 inh = blocks West Nile virus NS2B-NS3 protease activity. z-score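 (tested at a level between 10 and 100 µM)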. AID 577. hit rate 0.18% among 65,000. WNV NS2B-NS3 protease, fluorogenic substrate Ex360/Em465; hits give low values;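 active = z-score at -3 or under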;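 also: score is relative to mean and spread of the compound wells of a plate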
Target sequence (P06935 1371-1501 limits assumed): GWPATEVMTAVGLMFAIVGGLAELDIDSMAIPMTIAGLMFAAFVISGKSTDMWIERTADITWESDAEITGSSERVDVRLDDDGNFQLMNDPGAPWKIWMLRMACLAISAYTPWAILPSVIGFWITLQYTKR
Target sequence (P06935 1502-1679 limits assumed): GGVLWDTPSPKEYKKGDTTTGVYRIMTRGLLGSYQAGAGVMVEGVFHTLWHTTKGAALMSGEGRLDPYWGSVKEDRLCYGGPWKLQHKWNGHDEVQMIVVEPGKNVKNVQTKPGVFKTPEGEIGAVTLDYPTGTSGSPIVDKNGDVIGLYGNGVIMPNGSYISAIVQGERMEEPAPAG
MT1-MMP reporter = inhibitors of MT1-MMP promoter transcription, cell-based, luciferase reporter, luminescence (AID 618); MT1-MMP promoter luciferase reporter cells, luminescence; calls from a first round at 10 µM; hits with a dose series show EC50 in µM; hit rate 0.62% among 87,000;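 active = over half of the reporter light lost at 10 µM or EC50 under 50 µM; inactive = the rest and hits that failed the dose series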;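 also: actives suppress MT1-MMP promoter-driven transcription so potencies describe inhibitors; HT1080 fibrosarcoma cells; overnight exposure; toxic or luciferase-blocking compounds were not removed from the actives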
Hsc70 ATP site = small molecules displacing fluorescent ligand from Hsc70 – biochemical, fluorescence polarization, primary screen (AID 568); Hsc70 fluorescence polarization, probe displacement; higher % means a stronger effect; strong numbers were not always called active; displacement, % at 20 µM; hits with a dose series show IC50 in µM; 83,000 tested, under 10 active;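 active = displacement above 50% without optical interference and an IC50 on retest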;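 also: ATPase domain with a fluorescein-tagged ATP probe; 0% = vehicle and 100% = excess ADP; read after one hour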
* = called active by the depositor; i = inactive; nt = no result given.

Order of results – WNV NS2B-NS3 inh, MT1-MMP reporter, Hsc70 ATP site
1) CC1CN(C(=O)COC(=O)c2cccs2)CC(C)O1 (stereo unspecified)
  0.64, i, 3.7%
2) CN1CCCCCC1=NC1=C(C#N)CCCC1
  -1.13, i, 1.6%
3) CC(C)C(=O)NC(NC(=S)NC1CCS(=O)(=O)C1)C(Cl)(Cl)Cl (stereo unspecified)
  nt, i, 2.0%
4) O=C(C1CC1)N1CCc2cc(Br)cc(S(=O)(=O)N3CCN(c4ccccn4)CC3)c21
  1.41, i, 2.2%
5) CC(=O)C1=C(NC(=O)c2ccc(F)cc2)CC2C1C2(C)C (stereo unspecified)
  nt, i, -3.9%
6) Nc1nc2c(ncn2COC(CO)CO)c(=O)[nH]1
  nt, i, -2.8%
7) CC(=O)NS(=O)(=O)c1ccc(N)cc1
  -0.19, i, 2.0%
8) Cc1cccc(N2CCN(C(=O)c3ccc(NS(=O)(=O)c4c(C)noc4C)cc3)CC2)c1C
  0.02, i, -1.8%
9) Cc1cccc(C)c1OCC(=O)N/N=C/c1cc2c(cc1[N+](=O)[O-])OCO2
  nt, i, 3.6%
10) CCCC1=NN2C(=N)/C(=C\c3ccc(SCc4ccco4)o3)C(=O)N=C2S1
  nt, i, -51.5%
11) CCS(=O)(=O)N1CCCC(C(=O)NCCCN(C)Cc2ccccc2)C1 (stereo unspecified)
  -1.29, i, 0.5%
12) Cc1ccc(N/C=C(\C#N)c2ccc(OCCCF)cc2)cc1
  nt, i, 2.5%
13) CCC(=O)c1cc(F)c(N2CCN(C(=O)Cc3ccccc3)CC2)cc1C
  -1.16, i, -6.9%
14) CCN(C#N)c1nc(N(C)C)nc(N(C)C)n1
  -0.15, i, 2.0%
15) CC(C)n1nnnc1SCC(=O)c1ccc2c(c1)OCCO2
  nt, i, -1.5%
16) CCn1c(=O)c(=O)[nH]c2cc(C(=O)NC3CCCc4ccccc43)ccc21 (stereo unspecified)
  -0.36, i, -6.0%
17) Cn1c(=O)[nH]c(=O)c2c1nc(Br)n2CC(O)c1ccccc1 (stereo unspecified)
  0.79, i, 6.1%
18) COc1cc(C2C(C(=O)OC(C)C)=C(C)Nc3ncnn32)cc(OC)c1OC (stereo unspecified)
  0.04, i, -1.3%
19) O=C(CN1CCCN(S(=O)(=O)c2ccc(Br)cc2)CC1)Nc1ccc2cn[nH]c2c1
  0.21, i, 0.8%
20) COc1ccc(-n2c(Cn3c(=O)sc4ccccc43)nnc2SC)cc1
  -0.48, i, 2.9%
21) CN(c1ccccc1)c1nc(-n2ccnc2)nc(-n2ccnc2)n1
  -0.29, i, -0.3%
22) CCC(C)(C(=O)NC1CCCC1)N(CC1CCCO1)C(=O)c1ccc2c(c1)OCO2 (stereo unspecified)
  -0.46, i, 1.2%
23) CS(=O)(=O)N(CCc1ccccc1)CC(=O)N1CCN(Cc2ccccc2)CC1
  -0.03, i, -2.6%
24) Cn1cc(/C=N/n2cnc3scc(-c4ccccc4)c3c2=O)c2ccccc21
  -1.05, i, -10.5%
25) CCOC(=O)C1=C(C)NC(C)=C(C(=O)OCC)C1c1cn(-c2ccccc2)nc1-c1ccco1
  nt, i, -3.3%
26) CC(=O)Nc1c(O)nc(SCC(=O)Nc2ccc(C(C)=O)cc2)[nH]c1=O
  -1.11, i, -5.2%
27) CN(CC(=O)Nc1ccc(Cl)cc1)CC(=O)Nc1cc(Cl)ccc1C#N
  -0.67, i, 1.0%
28) CC(=O)Nn1c(-c2ccccc2)cc2ccccc21
  -0.37, i, -2.2%
29) COc1ccc(Cl)cc1NC(=O)N1CCN(CCc2ccccc2)CC1
  -0.02, i, -1.1%
30) O=C(O)CCc1ccc(-c2ccc(F)cc2)n1CCC(=O)O
  -0.47, i, -1.3%
31) O=C(Nc1cc(C(=O)N2CCCC2)ccc1N1CCCC1)c1ccccc1F
  -0.22, i, -2.9%
32) COc1ccc(-n2c(=O)c3c4c(sc3n3c(C)nnc23)CC(C)CC4)cc1 (stereo unspecified)
  0.64, i, -3.3%
33) Oc1ccc(N=Cc2ccc(-c3cccs3)s2)cc1
  7.05, i, -7.8%
34) COC(=O)c1ccccc1NC(=O)C1CCCC1
  -1.02, i, 3.9%
35) Fc1ccc(C(c2nnnn2C2CCCC2)N2CCN(Cc3ccccc3)CC2)cc1 (stereo unspecified)
  0.14, i, 1.8%
36) Nc1nc(SCCN2C(=O)c3ccccc3C2=O)n[nH]1
  nt, i, 1.6%
37) O=c1c[n+]([O-])c2ccccc2n1OCc1ccccn1
  -1.14, i, -4.5%
38) CC1=NN(C(=O)Cc2ccc([N+](=O)[O-])cc2)C(O)(c2ccccc2)C1 (stereo unspecified)
  nt, i, -4.3%
39) O=C(CCCCCC(=O)N(CCO)CCO)N(CCO)CCO
  -1.39, i, 4.6%
40) CC(C)=CCC/C(C)=C/CCC(C)NCCN1CCNCC1 (stereo unspecified)
  2.03, i, 0.8%
41) O=[N+]([O-])c1ccc2n[nH]nc2c1
  nt, i, 5.4%
42) COc1ccc(NC(=O)c2ccc3c(c2)C(=O)N(Cc2cccnc2)C3=O)cc1
  -0.73, i, -4.1%
43) CC1(C)CC(=O)CC(C)(C)N1OC(=O)c1ccncc1
  0.6, i, -1.9%
44) CCOc1cc(S(=O)(=O)NC2CC(C)(C)NC(C)(C)C2)ccc1F
  0.2, i, -1.9%
45) CN1CCN(C(=O)c2ccccc2-c2nc(-c3ccc(Cl)cc3)no2)CC1
  1.1, i, -2.6%
46) CC1(C)Cc2nc3oc4c(N(CCO)Cc5ccccc5)ncnc4c3cc2CO1
  -0.97, i, -2.7%
47) CCOC(=O)c1ccccc1NC(=O)COc1ccccc1
  1.54, i, -0.9%
48) CCN(CC)CCN1C(=O)C(=O)/C(=C(/O)c2cnn(-c3ccccc3)c2C)C1c1ccc(C)o1 (stereo unspecified)
  nt, i, 1.7%
49) Cn1ncc(C#N)c1/N=C/N1CCOCC1
  0.11, i, -3.5%
50) CCOC(=O)N1CCN(C(=O)CSc2nnc(COc3ccc(Cl)cc3)o2)CC1
  0.63, i, 5.4%
51) O=C(NCC1CCCO1)c1ccccc1-c1nc(-c2ccccc2)no1 (stereo unspecified)
  0.11, i, -1.0%
52) Cc1cc(C(c2nnnn2Cc2ccccc2)N2CCOCC2)c(C)n1-c1ccc2c(c1)OCO2 (stereo unspecified)
  0.61, i, -2.0%
53) CCN(CC)C(=O)CSc1nc2ccccc2c(=O)n1CC1CCCCC1
  -2.66, i, -4.1%
54) CCOC(=O)N1CCC(NC(=O)c2cc3c(-c4ccc(Cl)cc4)nn(C)c3s2)CC1
  -0.03, i, 0.7%
55) CCOC(=O)C1=C(N)Oc2cc(C)n(CCc3ccc(OC)c(OC)c3)c(=O)c2C1c1cccnc1 (stereo unspecified)
  -0.45, i, -1.6%
56) Cc1c(C)c2cc(Cl)c(O)c(CN(C)C)c2oc1=O
  9.77, i, -3.9%
57) COC(=O)c1cccc(Cn2nnc3ccccc3c2=O)c1
  2.05, i, 6.2%
58) O=C(N1CCCCCC1)N1CCN(S(=O)(=O)N2CCCCC2)CC1
  0.05, i, 0.1%
59) CC(C)OC(=O)NC(C)(C)COC(=O)Nc1cccc(Cl)c1
  nt, i, 3.0%
60) Cc1ccc(C)c(OCC(=O)O/N=C(\N)c2ccccn2)c1
  nt, i, 3.7%

By substructure, the compounds so far containing a nitro group on carbon (three)
Order of results – WNV NS2B-NS3 inh, MT1-MMP reporter, Hsc70 ATP site
9) Cc1cccc(C)c1OCC(=O)N/N=C/c1cc2c(cc1[N+](=O)[O-])OCO2
  nt, i, 3.6%
38) CC1=NN(C(=O)Cc2ccc([N+](=O)[O-])cc2)C(O)(c2ccccc2)C1 (stereo unspecified)
  nt, i, -4.3%
41) O=[N+]([O-])c1ccc2n[nH]nc2c1
  nt, i, 5.4%

Following part.
Order of results – WNV NS2B-NS3 inh, MT1-MMP reporter, Hsc70 ATP site
61) CCOC(=O)c1cc2sc(C)cc2n1CC(=O)NCCc1ccccc1
  -0.97, i, -4.8%
62) CCS(=O)(=O)N1CCCC(C(=O)NCCCOC(C)C)C1 (stereo unspecified)
  0.79, i, 1.6%
63) O=C(NC1CC2CCCC(C1)N2C(=O)Nc1ccccc1)c1ccncc1 (stereo unspecified)
  0.89, i, -7.6%
64) COc1cc(-c2nn3c(COc4ccccc4)nnc3s2)cc(OC)c1OC
  1.24, i, -2.4%
65) COC(=O)C1CCN(C(c2cccs2)c2sc3nc(C)nn3c2O)CC1 (stereo unspecified)
  0.19, i, 4.5%
66) Cc1ccc(-c2noc(CSc3nnc(-c4ccncc4)n3-c3ccc(C)cc3)n2)cc1
  nt, i, 0.7%
67) O=C(CN1CCN(c2ncccn2)CC1)NCCC1=CCCCC1
  -0.3, i, 4.7%
68) COc1ccc(CC(=O)Nc2ccc(-c3nnc(-c4ccccc4)o3)cc2)cc1
  1.4, i, -12.3%
69) COc1cccc2c(C)nc(Nc3nc(CSc4nnc(C)s4)cc(=O)[nH]3)nc12
  -0.59, i, -0.3%
70) CC(C)(C)n1nnnc1C(c1cccnc1)N1CCN(c2ccccc2F)CC1 (stereo unspecified)
  nt, i, -5.4%
71) COC(=O)c1cc(OC)c(OC)cc1NC(=O)CN1C(=O)c2ccccc2C1=O
  nt, i, 0.3%
72) Cc1cc(C)nc(NS(=O)(=O)c2ccc(NC(=O)NC3CCCCC3)cc2)n1
  -0.4, i, -0.9%
73) CC(C(=O)N1CCCc2ccccc21)N1C(=O)c2ccccc2C1=O (stereo unspecified)
  nt, i, 1.3%
74) O=C(NCCCN1CCCC1=O)c1cccs1
  -0.26, i, 7.7%
75) COc1ccc(CCn2c(C)ccc2C)cc1OC
  -0.24, i, -0.1%
76) CCOC(=O)Cc1csc(NC(NC(=O)OCC)(C(=O)OCC)C(F)(F)F)n1 (stereo unspecified)
  nt, i, -1.8%
77) CCCOc1ccc(N2C(=O)C3ON(c4ccccc4)C(c4ccc(O)c(OC)c4)C3C2=O)cc1 (stereo unspecified)
  0.73, i, -4.8%
78) CCCCn1cc(C(C)(C)C)c(C#N)c1NC(C)=O
  -0.29, i, 4.3%
79) O=C1CC(c2nc3ccccc3[nH]2)CN1c1ccccc1 (stereo unspecified)
  -0.2, i, 3.2%
80) COC(=O)c1[nH]c(C)c(/C(O)=C2\C(=O)C(=O)N(CCN(C)C)C2c2ccccc2OC)c1C (stereo unspecified)
  -0.32, i, 0.1%
81) CC(=O)Oc1cccc(N2C(=O)CC(Nc3ccc(N4CCOCC4)cc3)C2=O)c1 (stereo unspecified)
  1.24, i, 6.8%
82) CC(=O)OC(C(=O)NCCc1ccccc1)c1cccnc1 (stereo unspecified)
  -0.27, i, 5.7%
83) CCOc1ccc(C(=O)NCCCn2ccnc2)cc1
  -0.06, i, 3.0%
84) COc1cc2nc(C3CC3)n(NC(=O)c3ccc(F)cc3)c(=O)c2cc1OC
  -0.75, i, -10.9%
85) CCOc1cc(S(=O)(=O)Nc2ccc(Cl)cn2)ccc1F
  0.42, i, 4.3%
86) Nc1cc(=O)[nH]n1C1CCN(c2ccccc2)CC1
  0.89, i, -11.0%
87) CCc1ccc(N2C(=O)CC(N3CCC(C(=O)OC)CC3)C2=O)cc1 (stereo unspecified)
  nt, i, 3.5%
88) CCOC(=O)N1CCN(C(=O)c2cc3sccc3n2C)CC1
  -0.05, i, -5.7%
89) COC(=O)C(CC(C)C)NC(=O)c1cc(OC)c(OC)c(OC)c1 (stereo unspecified)
  1.56, i, -7.1%
90) Cc1ccc2c(C(=O)CN3CCN(C4CCCCC4)CC3)c(C)[nH]c2c1
  -0.98, i, 0.5%

Arranged by SMILES length (ascending): 3 of the compounds above
Order of results – WNV NS2B-NS3 inh, MT1-MMP reporter, Hsc70 ATP site
83) CCOc1ccc(C(=O)NCCCn2ccnc2)cc1
  -0.06, i, 3.0%
78) CCCCn1cc(C(C)(C)C)c(C#N)c1NC(C)=O
  -0.29, i, 4.3%
85) CCOc1cc(S(=O)(=O)Nc2ccc(Cl)cn2)ccc1F
  0.42, i, 4.3%

Next part.
Order of results – WNV NS2B-NS3 inh, MT1-MMP reporter, Hsc70 ATP site
91) O=C(CSc1nnc(-c2cc3ccccc3cc2O)n1Cc1ccco1)c1ccc(F)cc1
  0.57, i, -0.6%
92) CCOC(=O)CCSc1nc(C(C)(C)C)cc(C(F)(F)F)c1C#N
  nt, i, -0.4%
93) CC(C)(C)C(=O)[C@@H]1[C@@H]2C(=O)N(Cc3ccccc3)C(=O)[C@@H]2[C@H]2c3ccccc3C=CN12
  nt, i, -0.2%
94) CC1CCN(C(=O)COC(=O)c2n[nH]c3ccccc23)CC1
  1.25, i, -4.9%
95) CN(CCC#N)c1ncnc2scc(-c3ccccc3)c12
  -0.33, i, -7.3%
96) O=C(CCCN1C(=O)c2cccc3cccc(c23)C1=O)N1CCc2ccccc2C1
  nt, i, 0.8%
97) CC1(C)NC(=O)N(CC(O)COC2CCCCC2)C1=O (stereo unspecified)
  0.65, i, -0.6%
98) Cc1cccc2nc(CNc3ccc(F)cc3)cn12
  -0.49, i, 2.2%
99) COc1ccc(C2c3sc(=O)[nH]c3SC3C4CCC(C4)C23)cc1OC (stereo unspecified)
  nt, i, -4.4%
100) O=C(COc1ncnc2ccccc12)NC(=O)NCc1ccccc1
  0.88, i, 2.8%
101) COc1cccc(NC(=O)C2CCCN(S(=O)(=O)c3ccc(-n4cnnn4)cc3)C2)c1 (stereo unspecified)
  0.14, i, -1.9%
102) Cc1ccc(S(=O)(=O)/N=C(\CSC(N)=O)Nc2ccccc2)cc1
  nt, i, 7.4%
103) COC(=O)COc1ccc(S(=O)(=O)Nc2ccc3c(c2)OCCO3)cc1Cl
  -0.85, i, -0.3%
104) Cc1sc2ncn(CC(=O)N(CC(=O)NC3CCCC3)Cc3cccs3)c(=O)c2c1C
  1.93, i, -6.9%

These rows are one share of the data, so the mix of outcomes need not match the whole.
